From PubChem BioAssay
miR-21 FLuc: raises the signal of a miR-21 reporter | HeLa miR-21 FLuc reporter, luciferase, 48 h | Potency, µM (doses to about 38.3 µM), inactives show top-dose reporter change, positive = more light | 340,000 tested, under 10 active | AID 2288; active = well fitted rising curve with a large enough effect; inconclusive = small, poorly fitted or top-dose-only effect; inactive = no such curve, though single readings can be large or run the other way;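 further: % of control where 0% means no effect; miR-21 action dims this reporter so a rising signal means less miR-21 action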
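HeLa cells endogenously expressing miR-21, stably carrying CMV-driven firefly luciferase with a downstream miR-21 binding site, 2000 cells/well. Titrations up to approximately 40 uM, 48 hours; luciferase luminescence read.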
GLA inh pH 4.5: blocks human alpha-galactosidase A at pH 4.5 | P06280 | purified enzyme, 4-MU-alpha-Gal fluorescence, pH 4.5 | activity change, negative = inhibition, % at 105 µM | 230,000 tested, under 10 active | AID 1467; inconclusive = small, poorly fitted or top-dose-only inhibition, or a rising curve; inactive = flat fitted curve, though single readings scatter; no compound was filed as active;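 further: 0% = full activity with enzyme and -100% = basal without enzyme; dose as in the result columns while the protocol names 77 µM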
Target sequence (P06280 whole entry, looked up): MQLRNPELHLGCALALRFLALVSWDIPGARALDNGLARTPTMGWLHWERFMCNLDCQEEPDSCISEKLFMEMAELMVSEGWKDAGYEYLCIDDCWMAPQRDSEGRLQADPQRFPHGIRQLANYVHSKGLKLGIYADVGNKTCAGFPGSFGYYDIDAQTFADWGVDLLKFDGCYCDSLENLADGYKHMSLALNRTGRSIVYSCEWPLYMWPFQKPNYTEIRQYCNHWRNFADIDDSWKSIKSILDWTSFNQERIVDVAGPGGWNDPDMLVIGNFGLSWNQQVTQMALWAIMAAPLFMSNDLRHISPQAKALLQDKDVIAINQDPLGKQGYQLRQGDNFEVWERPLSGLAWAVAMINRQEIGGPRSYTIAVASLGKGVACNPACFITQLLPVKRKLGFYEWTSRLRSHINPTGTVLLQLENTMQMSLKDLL
Rango release inh: prevents RanGTP from dissociating the Rango-importin beta complex; O95149+P62826; Biochemical FRET Rango-importin beta, RanGTP-induced dissociation; Potency, µM (doses to about 46.1 µM), inactives show top-dose activity change, negative = inhibition; 340,000 tested, 0.071% active; active means falling FRET ratio curve, often poorly fitted, with flat reads before Ran was added; inconclusive means other falling curves, or compound fluorescence or quenching; inactive means flat or rising ratio curve;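 further: potency means the concentration at half of the fitted maximal effect; % of control where 0% means no effect; nearly all actives have a fitted effect of over 45% in size; -100% = wells without RanGTP and RCC1; the record marks most hits as doubtful in a second field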
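Two FRET readings bracket the reaction: one 5 min after compound meets Rango–importin beta, another 45 min after RanGTP-RCC1 (0.6 uM Ran, 0.2 uM RCC1, 2 mM GTP) is added. Only the second defines inhibition.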
Rango-impB inh: Rango-importin beta binding inhibition; 340,000 tested, 0.031% active; Rango CFP/YFP FRET sensor + importin beta, 45 min; Potency, µM (top dose mostly 92.2 µM), for the others: top-dose inhibition of complex formation; active = rising FRET ratio curve, often small or poorly fitted; inconclusive = mostly compound fluorescence or quenching in the first reads; inactive = flat curves in all reads;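 further: potency means the concentration at half of the fitted maximal effect; 0% = DMSO wells and 100% = buffer wells lacking importin beta; nearly all actives have a fitted effect of over 15% in size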
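FRET biosensor (snurportin 1 IBB flanked by EYFP and cerulean), 50 nM, with compound 5 min, then 0.125 microM importin beta in PBS, 1 mM DTT, 0.02% Tween-20, 0.1% BSA. CFP/YFP ratio read after 45 min at room temperature; pre-read flags interference.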
The depositor's hits bear a star; ? = inconclusive; . = no result given; & = joins results of further samples; [ ] = remark or other dose. Not all compounds are listed (hit frequency here may not be typical).

no.	mol	miR-21 FLuc	GLA inh pH 4.5	Rango release inh	Rango-impB inh
1	CCOC(=O)CSc1nc2ccc(S(=O)(=O)N3CCOCC3)cc2[nH]1	0%	9	2%	-0.3%
2	O=C(NCCCn1ccnc1)c1ccc2nccnc2c1	-4%	.	15%	0.1%
3	CCn1c(=O)n(CC)c2cc(N3CCCC3)c(NC(=O)c3cccc(OC)c3)cc21	9%	.	-8%	-1.7%
4	CC(C)(C)OC(=O)N[C@@H](Cc1ccccc1)C(=O)N[C@@H](CO)[C@H](O)[C@@H]1C[C@@H]1C(=O)NC1CCCCC1	.	.	-13%	-0.5%
5	CC(C)(C)NC(=O)C(Cc1ccccc1)NS(=O)(=O)c1cccc2nsnc12 (stereo not given)	-7%	-8	1%	-3.0%
6	CCOc1cc(CNC(C)(C)C)ccc1OCC(=O)Nc1cccc(C(F)(F)F)c1	-4%	-12	0%	-1.1%
7	CC1(C)OC(C(O)(c2ccccc2)c2ccccc2)[C@@H](C(O)(c2ccccc2)c2ccccc2)O1 (stereo not given in full)	1%	.	8%	-0.4%
8	O=C(CSc1nncn1-c1ccccc1)NCc1cccs1	-1%	0	2%	-0.8%
9	COc1ccccc1-n1cc(-c2ccc(Br)cc2)[nH]c1=S	10%	.	11%	-1.7%
10	CCn1cc(SCC(N)=O)c2ccccc21	3%	0	0%	-1.6%
11	CC(C)OP(=O)(OC(C)C)C(NC(=O)c1ccc(Br)cc1)c1ccccc1 (stereo not given)	25%	3	-3%	0.2%
12	COC(=O)c1ccc(CNC(=O)COC(=O)/C=C/c2ccc(O)c(OC)c2)cc1	.	.	18µM*	?
13	CC1N(C(=O)N2CCOCC2)CCN1S(=O)(=O)c1ccc(Cl)cc1 (stereo not given)	0%	.	-2%	4.3%
14	CN(C)c1ccc(S(=O)(=O)NCC(=O)OCC(=O)NC(=O)C2CCCCC2)cc1[N+](=O)[O-]	.	.	-16%	-0.1%
15	Cc1noc(C)c1NC(=O)Nc1ccc2c(c1)C(=O)N([C@@H](C)CO)C[C@@H](C)[C@@H](CN(C)Cc1ccc3c(c1)OCO3)O2	.	.	8%	-1.2%
16	Cc1ccc(N=Nc2cc(C)ccc2O)c(C)c1	-50%	.	-24%	2.6%
17	O=C(NCCc1ccccc1)C1CCCN(S(=O)(=O)c2cnc[nH]2)C1 (stereo not given)	-2%	-3	-13%	-2.1%
18	Cc1ccc(NC(=O)N(Cc2nc3ccccc3c(=O)[nH]2)Cc2cccs2)cc1	-2%	4	-6%	?
19	CC(C)N(C(=O)[C@H]1CC(CC(=O)NCC23CC4CC(CC(C4)C2)C3)C(=O)N2CCc3c([nH]c4ccccc34)[C@]12C)C(C)C (stereo not given in full)	.	.	12%	2.7%
20	COC(=O)C(Oc1ccc2c(-c3ccc(OC)cc3)cc(=O)oc2c1)c1ccccc1 (stereo not given)	0%	-10	-13%	?
21	CCCCNC(=O)CCNS(=O)(=O)c1ccc(Br)cc1	-2%	2	-7%	0.3%
22	COc1ccc(Cl)cc1NS(=O)(=O)c1cccc(C(=O)N2CC(C)OC(C)C2)c1 (stereo not given)	.	.	-5%	5.2%
23	Cc1ccc(C(=O)NC2CCCCNC2=O)cc1 (stereo not given)	-42%	0	-7%	6.9%
24	Cc1ccc2c(c1)cc(C(=O)NCc1ccccc1)n2C	9%	.	-6%	-0.3%
25	CCOC(=O)CNC(=O)c1sc2ncnc(N3CCc4ccccc4C3)c2c1C	8%	-5	-6%	0.9%
26	CC12CCC(C/C1=N/O)C2(C)CBr (stereo not given)	-3%	-8	-7%	-0.1%
27	CC(=O)Nc1cccc(NC(=O)CCCC(=O)O)c1	-1%	8	19%	2.8%
28	O=C(COc1ccc(Br)cc1)Nc1ccc(-c2nnc(-c3ccco3)o2)cc1	-26%	6	0%	-0.6%
29	O=C(CSc1nnc(-c2cccnc2)n1CCc1ccccc1)N1CCCCC1	-1%	2	10%	6.1%
30	CCN1/C(=C2/SC(=S)N(NC(C)=O)C2=O)Sc2ccc(Cl)cc21	-5%	.	?	?
31	C#CCOCCOCCOCCNc1nc(N2CCN(C(=O)[C@H](C(C)C)n3cc(CCO)nn3)CC2)nc(N2CCN(C(=O)[C@H](C(C)C)n3cc(CCO)nn3)CC2)n1	-1%	1	-2%	-1.3%
32	C=C1C2C[C@H](O)C(C)(C)[C@@]2(O)[C@H](O)C[C@]23C[C@@](C)(O)[C@H](CC[C@H]12)[C@H]3O (stereo not given in full)	-6%	0	24%	-0.2%
33	C=CCn1c(=O)c2ccccc2n2c(SCc3nc4ccccc4s3)nnc12	-43%	9	-5%	5.5%
34	CCOc1ccc(-c2nc3ccccc3c(=O)o2)cc1	10%&-35%	0	9%	1.5%
35	CC(C)c1nc2c(c(=O)c3ccccc3n2C)c(=O)n1-c1ccc(F)cc1	7%	-4	14%	2.5%
36	CC(NC(=O)C1CCN(C(=O)c2ccc(F)cc2)CC1)c1ccc(-n2ccnc2)cc1 (stereo not given)	.	.	-4%	0.4%
37	CC1CCCN(c2c3c(nc4ccccc24)CCCC3)C1 (stereo not given)	-2%	.	5%	0.0%
38	Cc1ccc(NC(=O)OCCN2CCN(S(=O)(=O)c3ccc(C)cc3)CCC2=O)cc1	-6%	?	1%	-2.3%
39	CCOC(=O)c1c(C)nn(-c2ncccc2NC(=O)CCC(=O)O)c1C	1%	-23	10%	0.2%
40	CC(=O)NC(c1cc(Cl)c2cccnc2c1O)C1CC1 (stereo not given)	.	.	21%	-0.3%
41	COc1ccc(/C=C/C(=O)c2ccc3c(c2)OCCO3)cc1[N+](=O)[O-]	-9%	-2	-2%	-0.3%
42	Cc1cc(C(=O)COC(=O)c2ccc[nH]c2=O)c(C)n1-c1ccccc1	0%	3	2%	-1.9%
43	CC1(C(=O)OCC(=O)NNC(=O)COc2ccc(Cl)cc2)CC1(Cl)Cl (stereo not given)	.	.	18%	5.4%
44	Cc1[nH]nc(-c2cccnc2)c1N=NN(C)C	.	.	12%	0.2%
45	CCCCCn1c(CN2CCN(c3cccc(Cl)c3)CC2)nc2c1c(=O)n(C)c(=O)n2C	0%	-8	10%	-0.8%
46	Cc1ccc(N2CC(C(=O)Nc3ccc(S(=O)(=O)N4CCOCC4)cc3)CC2=O)cc1 (stereo not given)	-2%	-11	-8%	-4.4%
47	Cc1ccc2cccc(O)c2[n+]1[O-]	-4%	-6	-8%	-0.1%
48	CCOc1ccccc1N1CC(C(=O)NNC(=O)c2cc(OC)c(OC)c(OC)c2)CC1=O (stereo not given)	.	.	6%	-0.9%
49	C#CCN1c2ccccc2Sc2cccnc21	11%	.	0%	4.3%
50	C=CCN1C(=O)c2ccc(C(=O)N3CCC(C(=O)OCC)CC3)cc2C1=O	.	.	6%	-0.4%

Results in sequence from the list:
Rango-impB inh, compounds 21 to 26: 0.3%, 5.2%, 6.9%, -0.3%, 0.9%, -0.1%
miR-21 FLuc, compounds 21 to 26: -2%, ., -42%, 9%, 8%, -3%
Rango release inh, compounds 21 to 26: -7%, -5%, -7%, -6%, -6%, -7%

New compounds follow:
no.	mol	miR-21 FLuc	GLA inh pH 4.5	Rango release inh	Rango-impB inh
51	COC(=O)C1=C(O)/C(=C\c2ccc(CNS(=O)(=O)c3ccccc3)o2)N=C1C	-4%	0	?	?
52	O=C1CCCN1CCCNc1ccc(S(=O)(=O)N2CCCCC2)cn1	-4%	0	-9%	1.5%
53	Nc1nnc(-c2ccccc2)s1	-15%	-1	4%	-2.5%
54	CCOc1ccccc1N(CC(=O)NCC1CCCO1)C(=O)CNS(=O)(=O)c1ccccc1 (stereo not given)	-1%	0	-1%	-3.4%
55	O=C(Cn1nc(-c2ccccc2)oc1=O)OCC(=O)c1ccc(F)c(F)c1	.	.	-9%	-3.5%
56	COc1ccccc1C(=O)NCc1ccc(-c2nc3ccccc3s2)cc1	-16%	-13	-23%	1.3%
57	CCCOc1cccc(C(=O)N/N=C/c2ccoc2)c1	-19%	.	0%	-3.9%
58	O=C(NN1C(=O)c2ccccc2C1=O)C1CCCCC1	1%	-23	5%	0.5%
59	CC(C)(C)OC(=O)[C@H](Cc1ccccc1)NC(=O)c1nc[nH]c1C(=O)N[C@@H](Cc1ccccc1)C(=O)OC(C)(C)C	?	-15	2%	0.0%
60	O=C(NCCN1CCOCC1)C1CC(=O)N(c2cccc(C(F)(F)F)c2)C1 (stereo not given)	.	.	2%	1.2%
61	COc1cc(OC)cc(C(=O)N(CCCN2C(=O)c3cccc4cccc(c34)C2=O)c2cccc(OC)c2)c1	-1%	-3	15%	-6.7%
62	COC(=O)C(C)n1cnc2c(nnn2-c2ccc(C)cc2)c1=O (stereo not given)	-11%	.	-4%	1.3%
63	COc1ccc(Nc2nc(N3CCOCC3)nc(N3CCOCC3)n2)cc1	0%	.	3%	1.6%
64	O=c1c2ccccc2nc(SCc2ccncc2)n1CC1CCCO1 (stereo not given)	-1%	-6[21.1 µM]	21%	0.2%
65	COc1ccccc1Nc1ccc(C(=O)NC2CCCCC2)cn1	-9%	-6	-4%	1.3%
66	CC1(C)CC(=O)C(CC2=C(N)CC(C)(C)CC2=O)=C(N)C1	0%	4	?	?
67	CN(C(=O)c1ccc(Br)o1)C1(C)CCS(=O)(=O)C1 (stereo not given)	-2%	.	3%	3.0%
68	Cn1c(SCC(=O)NCc2cccs2)nnc1-c1ccncc1	0%	-16	-9%	-0.6%
69	O=C(CSc1nc2ccccc2c(=O)n1CC1CCCO1)Nc1ccccc1 (stereo not given)	0%	.	1%	-3.2%
70	O=C(COC(=O)c1cc(S(=O)(=O)N2CCCC2)ccc1O)Nc1ccc(F)cc1F	.	.	-10%	-0.2%
71	COc1ccc(Br)c(C(=O)OCC(=O)NC2CC2)c1	.	.	6%	0.2%
72	CCCn1c(CN2CCN(c3cccc(Cl)c3)CC2)nc2c1c(=O)n(C)c(=O)n2C	10%	-5	14%	2.2%
73	CCOC(=O)N1CCN(Cc2nc3cc(NC(=O)c4cccs4)ccc3n2CC)CC1	8%	.	26%	-3.9%
74	Cc1ccc(CN2CC(C(=O)NCCCn3nc(C)cc3C)CC2=O)cc1 (stereo not given)	.	.	-7%	-0.7%
75	CN(C)S(=O)(=O)N1CCC(Oc2ccc(C(=O)N3C[C@@H]4CCC[C@H]3C4)cc2)CC1	.	.	-17%	-5.3%
76	CN(C)c1nc(N)nc(CSc2nc3cc(Cl)ccc3o2)n1	-15%	2	-14%	2.5%
77	COc1cc(/C=N/N2CCCCC2)cc([N+](=O)[O-])c1O	0%	.	11%	0.7%
78	N#CCCN(Cc1cccnc1)C(=S)Nc1ccccc1Cl	-1%	0	7%	2.0%
79	C/C(=C\c1ccccc1F)C1Nc2cccc3cccc(c23)N1	.	.	0%	-2.3%
80	O=C(CC(=O)Nc1ccc(Cl)cc1Cl)Nc1ccc(Cl)cc1Cl	-1%	.	1%	5.4%
81	Cc1cccc(N(C(=O)CNC(=O)c2ccco2)C(C(=O)NC2CCCC2)c2cccnc2)c1C (stereo not given)	0%	.	-15%	6.0%
82	Cc1[nH]c2ccccc2c1C(=O)NS(=O)(=O)Nc1ccc(F)cc1	1%	-2	21%	-3.0%
83	Cc1cccc(NC(=O)Cn2c(=O)n(CCc3c[nH]c4ccccc34)c(=O)c3cccnc32)c1	0%	-1	.	.
84	CC(NC(=S)NC1CCCCC1)C(c1cccs1)N1CCOCC1 (stereo not given)	9%	9	1%	-3.3%
85	CC1(C)Cc2ccccc2-c2nnc(-c3ccccn3)n21	8%	-5	1%	5.6%
86	COc1ccc(COc2cc(-c3cccc(OC)c3)nc3ccc(NC(=O)c4ccc(Cl)cc4)cc23)cc1	14%	2&-9	-15%	-1.7%
87	Cc1ccc(OCC(=O)NNC(=O)C2CCCO2)c(C)c1 (stereo not given)	4%	5[21.1 µM]	-12%	0.5%
88	c1ccc(-c2nc3ccccc3o2)nc1	-33%	-24	-2%	3.1%
89	COc1cc(/C=C/C(=O)O)cc(S(=O)(=O)N2CCc3ccccc3C2)c1OC	-18%	7	3%	1.5%
90	CC(Oc1ccc2c3c(c(=O)oc2c1)CCC3)C(=O)N[C@@H](Cc1ccccc1)C(=O)O (stereo not given in full)	-1%	.	-7%	-1.9%
